UCH37 DUB inh: human UCH37 deubiquitinating enzyme inhibition; inhibition, % (concentration not given with the values); AID 588478; Q9Y5K5; purified proteasome/UCH37, Ub-AMC cleavage fluorescence; 0.33% of 330,000 active;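 active means mean of two replicates above 20%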;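 further: 0% = compound-free wells with enzyme and 100% = wells lacking proteasome; stock transfer was 100 nL into about 20 µL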
Target sequence (Q9Y5K5 whole entry, looked up): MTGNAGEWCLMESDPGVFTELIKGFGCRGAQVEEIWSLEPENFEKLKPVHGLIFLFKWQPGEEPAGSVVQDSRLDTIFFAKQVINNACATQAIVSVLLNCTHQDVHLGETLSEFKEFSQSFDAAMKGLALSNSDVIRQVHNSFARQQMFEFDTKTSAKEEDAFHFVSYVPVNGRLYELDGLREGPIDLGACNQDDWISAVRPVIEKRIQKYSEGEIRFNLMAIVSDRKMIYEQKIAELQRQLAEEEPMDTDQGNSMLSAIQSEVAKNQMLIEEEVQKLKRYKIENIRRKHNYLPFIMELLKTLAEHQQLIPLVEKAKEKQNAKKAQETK
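Material: Human UCH37 enzyme supplied as purified proteasome complex | Schedule: 30 min preincubation with enzyme, 25 min cleavage at room temperature | Detection: AMC fluorescence 355/460 nm | Measure: % inhibition of Ub-AMC cleavage fluorescence | Controls: Wells without proteasome as full block, compound-free enzyme plus substrate as uninhibited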
FGF22 binding: binders of recombinant human FGF22 by thermal shift | Q9HCT0 | SYPRO orange fluorescence; percent of sucrose octasulfate shift, DMSO zero | calls only at 9.99 µM | 1.5% of 340,000 active | AID 651658;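 active means melting point raised past a set limit in the mean and every replicate; three in four hits are not shown here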
Target sequence (Q9HCT0 whole entry, looked up): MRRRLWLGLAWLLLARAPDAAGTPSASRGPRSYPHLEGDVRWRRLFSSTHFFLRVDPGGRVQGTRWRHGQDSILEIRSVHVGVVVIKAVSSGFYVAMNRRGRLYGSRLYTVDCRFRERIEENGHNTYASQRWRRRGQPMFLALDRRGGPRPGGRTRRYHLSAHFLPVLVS
rRNA inh HTS: inhibits bacterial ribosomal RNA function over humanized ribosomes; E. coli WT GFP vs humanized-ribosome RFP mutants, fluorescence, 24 h; active compounds read low; DMSO median 0, no signal -100; GFP signal change (wild-type ribosome), % (no concentration beside the values); 1.6% of 350,000 active;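 active means significant combined selectivity score with lowered wild-type GFP, culture density cut under 30%, mutant RFP and density less affected; inactive means any of these conditions unmet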; further: one replicate is shown; some compounds called inactive have numbers as strong as hits
HNF4A DNA FP: change in binding of human HNF4 alpha to DNA. activity change, % at 10 µM. AID 1224865. HNF4a-FITC DNA binding, fluorescence polarization, 1 h. 0.3% of 360,000 active; in the data active means activity change above about 30%, passing the limit was not always enough;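 further: controls were the assay level and a saturating level of protein; the project sought stronger binding though the title names inhibitors; some compounds called inactive have numbers as strong as hits; positive values seem to mean higher polarization but the record does not say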
Beta2AR agonist: human beta-2 adrenergic receptor agonism by FAP | P07550 | Am2.2-beta2AR cells, FAP receptor internalization, flow cytometry; reference of the scale not given here | response, % (concentration not given with the values) | 0.43% of 340,000 active | AID 504454;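 active means response above a set limit, near 3 SD of response in nonfluorescent compounds, cut at about 42% in these data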;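 further: stock transfer was 100 nL into about 11 µL; a reference agonist was the positive control; negative values mostly stem from fluorescent compounds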
ALR H2O2 inh: blocks human ALR sulfhydryl oxidase activity; P55789; 3.8% of 290,000 active; purified ALR, DTT oxidation, H2O2 HRP-luminol luminescence; inhibition, % (test concentration not listed);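 active means mean and each replicate at 75% or more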;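 further: stock transfer was 7.5 nL into about 7.5 µL; 0% = neutral wells and 100% = wells with inactivated enzyme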
Target sequence (P55789 whole entry, looked up): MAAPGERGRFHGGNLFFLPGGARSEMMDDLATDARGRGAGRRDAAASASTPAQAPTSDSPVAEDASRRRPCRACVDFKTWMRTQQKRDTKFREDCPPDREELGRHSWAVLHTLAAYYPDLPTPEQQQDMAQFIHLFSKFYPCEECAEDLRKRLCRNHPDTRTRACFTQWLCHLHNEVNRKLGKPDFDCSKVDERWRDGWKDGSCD
Ecoli growth: blocks Escherichia coli growth | OD600 absorbance (concentration not given with the values) | 0.21% of 330,000 active | OD600, 23 h; active compounds read low;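 active means OD600 absorbance below the run mean of sample wells minus 3.6 SD, in any replicate, cut at about 0.56 in these data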;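 further: stock transfer was 300 nL into about 60 µL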
rRNA inh HTS OD600: second read-out of rRNA inh HTS, no call of its own (marks repeat the call); OD600 change, %; measured here: OD600 growth;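 optical density of the mix in the first replicate; 0 = DMSO median and -100 = no signal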
rRNA inh HTS RFP: further read-out of rRNA inh HTS, marked with its call; RFP signal change, %; measured here: RFP humanized mutant strains;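 first replicate; 0 = DMSO median and -100 = no signal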
Active calls of the source: *; i = inactive; . = no result given; & = joins results of further samples.

compound,rRNA inh HTS,rRNA inh HTS RFP,ALR H2O2 inh,rRNA inh HTS OD600,HNF4A DNA FP,Beta2AR agonist,UCH37 DUB inh,Ecoli growth,FGF22 binding
CCOC(=O)C1=C(C)NC(C)=C(C(=O)OCC)C1C(=O)OCC(=O)N1CCCCC1CC (stereo unspecified),-1,0.4,8,4,3.7&-1.4,1,-29&-8.5,0.7&0.68,i
Cc1ccc(S(=O)(=O)N2CCOCC2)cc1C(=O)NC1CCN(Cc2ccccc2)CC1,2,-1.7,.,6,0.2,0,-2.2,0.68,i
C/C(=N\NC(=O)CNC(=O)C1COc2ccccc2O1)c1ccc(Cl)cc1 (stereo unspecified),-2,-0.2,-3,4,2.8,9,.,.,i
Cc1ccccc1-n1c(=O)c2ccccc2n2nnnc12,.,.,0,.,-1.6,-9,-2.0,0.73,.
COc1ccc(C=O)cc1OS(=O)(=O)c1ccc(NC(C)=O)cc1,.,.,2,.,-3.2,17,1.7,0.67,i
CC(=O)N1CCN(C(=O)c2ccc3c(c2)S(=O)(=O)c2ccccc2C3=O)CC1,17,0.5,-4,9,2.2,-2,1.7,0.68,i
COCCCNC(=O)CN1C(=O)/C(=C\c2ccc(C)cc2)Sc2ccccc21,.,.,-3,.,-0.5,-5,-3.1,0.72,.
CC(=O)n1c(C=Nc2ccc(Cl)cc2)c(O)c2ccccc21,0,-6.8,-5,13,-117,0,3.3,0.71,i
COc1ccc(C(=O)NC2CCCCCCC2)cc1OC,.,.,3,.,-1.6,-10,3.3,0.67,i
CN(C)S(=O)(=O)c1cccc(NC(=O)CSc2nc3ccccc3n2-c2ccccc2)c1,.,.,23,.,-1.7,1,3.7,0.67,.
COc1ccccc1C1NC(=O)NC(C)=C1C(C)=O (stereo unspecified),.,.,-8,.,4.2,-3,5.8,0.73,.
O=C(O)c1ccc(CNCc2cc(Cl)ccc2O)cc1,1,-11,0,6,2.1,1,-0.1,0.66,i

compound,rRNA inh HTS,rRNA inh HTS RFP,ALR H2O2 inh,rRNA inh HTS OD600,HNF4A DNA FP,Beta2AR agonist,UCH37 DUB inh,Ecoli growth,FGF22 binding
CN1CCN(c2nc(NCCOC34CC5CC(CC(C5)C3)C4)nc(OCC(F)(F)F)n2)CC1,.,.,-9,.,-1.5,-7,4.9,0.65,.
CCOC(=O)c1c(NC(=S)Nc2ccc(Cl)cc2)sc2c1CCN(C)C2,-20,-9.8,21,-43,58*,-92,4.1,0.66,i
CC(=O)c1ccc2c(c1)OCCOCCOc1ccccc1OCCOCCO2,.,.,8,.,2.3,-1,1.6,0.67,i
Cc1ccc(-c2nc(-c3ccccn3)sc2CC(=O)O)cc1,3,-0.4,99*,-2,-1.9,1,-4.7,0.7,i
O=C(CSc1ccc(S(=O)(=O)N2CCOCC2)cn1)Nc1ccc(OC(F)F)cc1,27,1.1,3,16,0.3,3,0.7,0.69,i
COCCNC(=O)c1cccc(Nc2nc(-c3ccccc3)c3cc(Cl)ccc3n2)c1,-10,1.9,-7,-7,-2.6,8,-41,0.73,i
COC(=O)COc1ccc(S(=O)(=O)NCc2ccco2)cc1,11,0.4,-2,7,-1.4,6,2.7,0.59,.
Cc1ccc(C)n1-c1ccc(C(=O)N/N=C/c2ccncc2)cc1,3,6.9,27,4,0.8,-2,.,.,i
CCC[C@H]1CN(c2ccc(OC)cc2)C(=O)[C@@H]1CC(=O)Nc1ccccc1,-9,-7.7,.,-10,-0.8,.,.,.,i
CC(=O)OCC1=C(C(=O)O)N2C(=O)[C@@H](NC(=O)CSc3ccncc3)[C@H]2SC1,5,-2.1,.,4,-28,2,2.8,0.22*,i
COc1ccccc1CNC(=O)CCCc1cn(C)c2ccccc12,-25,-4.1,9,-27,-2.4,0,4.3,0.69,i
Cc1ccc(C(=O)NCC(=O)Nc2cc(C)ccn2)cc1,3,1.1,-2,10,0.1,0,-2.4,0.7,i

compound,rRNA inh HTS,rRNA inh HTS RFP,ALR H2O2 inh,rRNA inh HTS OD600,HNF4A DNA FP,Beta2AR agonist,UCH37 DUB inh,Ecoli growth,FGF22 binding
Cc1cc2ncc(S(=O)(=O)c3ccccc3)c(N)n2n1,-5,-2.7,-11,1,0.7,-2,-1.0,0.72,i
Cc1nc2c(C(=O)N3CCN(C)CC3)cnn2c(C)c1Cc1ccc(Cl)cc1,.,.,-3,.,-3.8,7,-53,0.72,.
COc1cccc2cc(C(C)N(CCCN3CCOCC3)C(=S)Nc3ccccc3C)oc12 (stereo unspecified),0,5.5,-2,5,-4.3,14,2.8,0.67,i
CC(=NNC(=S)Nc1ccc(C)cc1)c1ccccn1,-9,-5.4,.,-34,0.7,1,.,.,i
Cc1nc(Cl)c(N=Cc2cccc([N+](=O)[O-])c2)c(Cl)n1,0,-3.5,.,5,-0.7,3,4.7,0.64,i
Cc1cccc(C)c1N1C(=O)c2ccccc2NC(=O)C1C(=O)NCCc1ccccc1 (stereo unspecified),-1,-0.1,.,11,2.2,.,.,.,i
COc1cc(C)ccc1OCCOc1cc(C)ccc1Cl,.,.,0,.,0.3,-6,3.4,0.75,.
COC(=O)c1cccn(CC(=O)c2ccc(Cl)cc2)c1=O,12,1.0,1,19,0.7,1,0.9,0.64,i
CN(Cc1cccc(F)c1)C(=O)c1ccc(S(=O)(=O)N2CCOCC2)cc1,-2,-5.1,0,-1,-1.0,-2,1.0,0.66,i
COC(=O)/C=C1\N/C(=N\c2nc(C)cc(C)n2)N(c2ccc(C)c(C)c2)C1=O,-5,-1.9,7,-16,4.1,-3,5.5,.,i
O=C(COC(=O)C1CCN(c2ccc(C(F)(F)F)cn2)CC1)c1ccccc1,-6,-2.5,0,-16,-3.0,3,0.4,0.66,i
COc1ccc(C/C(N)=N/OC(=O)Cc2ccccc2)cc1,.,.,-4,.,6.1,3,1.3,0.69,.

compound,rRNA inh HTS,rRNA inh HTS RFP,ALR H2O2 inh,rRNA inh HTS OD600,HNF4A DNA FP,Beta2AR agonist,UCH37 DUB inh,Ecoli growth,FGF22 binding
COCCNC(=O)c1c(N)n(-c2ccccc2)c2nc3ccccc3nc12,.,.,29,.,0.3,-13,i,0.63,.
Cc1ccccc1C(=O)NC1CCN(CC(=O)Nc2ccc(N(C)C)cc2)CC1,12,-1.3,.,12,0.2,7,3.7,0.67,i
Cc1cccc(N2CCN(S(=O)(=O)c3cccc4nonc34)CC2C)c1 (stereo unspecified),10,-1.4,23,16,0.3,-20,1.3,0.71,i
Cc1ccccc1CCNC(=O)C1CCN(S(=O)(=O)c2ccc(-n3cnnn3)cc2)CC1,.,.,.,.,-1.8,0,-3.1,0.77,.
O=C(O)/C=C/c1cnn(-c2ccccc2)c1,3,0.2,.,8,-1.8,-8,-0.7,0.68,i
Cc1ccn2cc(CCNC(=O)Cc3cccs3)nc2c1,5,-3.5,3,-7,1.8,13,0.4,0.69,i
O=[N+]([O-])c1nn(-c2ccc(Cl)cc2)n(O)c1=NCc1ccncc1,-2,9.6,-3,-2,-4.7,2,5.2,0.53,i
CSc1nc(-c2ccccc2)c(C#N)c(=O)n1C,-16,-2.1,5,-10,2.2,-2,5.1,0.68,i
CN(C)/C=N/c1sc2c(c1C(N)=O)CCCC2,2,-1.7,.,6,-2.2,2,.,.,i
OC1COC(OCc2ccccc2)C(O)C1O (stereo unspecified),4,1.8,-10,7,-2.3,-2,0.2,0.68,i
O=C(NCc1ccc2c(c1)OCO2)c1ccc(Cl)s1,0,6.4,.,0,-6.8,-14,2.9,0.7,i
Cc1cccc(/C(N)=N/OC(=O)c2cccnc2)c1,7,1.1,-1,14,3.5,2,4.0,0.69,i

compound,rRNA inh HTS,rRNA inh HTS RFP,ALR H2O2 inh,rRNA inh HTS OD600,HNF4A DNA FP,Beta2AR agonist,UCH37 DUB inh,Ecoli growth,FGF22 binding
Cc1ccc(-n2ncc3c(SCc4ccccn4)ncnc32)c(C)c1,-16*,-4.4*,-6,3.9*,-6.9,-6,5.1,0.69,i
CC(=O)c1c(C)n(C)c2ccc(OC(=O)c3ccc([N+](=O)[O-])cc3)cc12,1,-1.3,.,6,2.9,-5,-1.1,0.71,i
CCOC(=O)CCCCCC(=O)Nc1ccc2c(c1)C(=O)N([C@@H](C)CO)C[C@H](C)[C@H](CN(C)C(=O)Nc1ccc(F)cc1)OCCCC[C@H](C)O2,20&2,14&2.5,.,19&0,5.9,.,.,.,i
O=C(O)COc1ccc(/C=C2/SC(=S)N(Cc3ccccc3)C2=O)cc1,-32,-4.2,.,-41,7.4,10,6.3,0.7,i
O=C(CCN1C(=O)C2C3C=CC(C3)C2C1=O)NC1CCCc2ccccc21 (stereo unspecified),.,.,-11,.,0.7,2,-1.6,0.75,.
COc1cc(CNC[C@H]2O[C@@H](n3ccc(N)nc3=O)[C@H](O)[C@@H]2O)ccc1OCc1cccc(Cl)c1,4,2.7,.,9,7.1,.,.,.,i
COc1ccc(-c2c(-c3cccc(C)c3)oc3ccc(-c4ccc5c(c4)OCO5)cc23)cn1,.,.,-1,.,3.7,1,-7.1,0.73,.
Cc1cc(C(=O)CSc2nnc(-c3ccccc3)n2Cc2ccc3c(c2)OCO3)c(C)n1C,.,.,6,.,0.3,4,2.3,0.73,.
O=c1c2cnn(-c3ccc(F)cc3)c2ncn1Cc1ccccc1,.,.,-3,.,-1.1,3,-2.1,0.77,.
O=C(CSc1nnc(NC(=O)C2CC2)s1)Nc1ccc(F)cc1F,11,-1.2,-3,13,3.4,-3,1.0,0.7,i
COc1cc2c(cc1[N+](=O)[O-])n(C(C)C)c(=O)n2C(C)C,6,-0.5,-11,-4,-0.9,-8,2.4,0.71,i
CCCCCCCCN1C(=O)[C@H](CC(=O)NCC23CC4CC(CC(C4)C2)C3)C[C@@]2(C(=O)OCC)CCC=C12,16,8.9,.,11,-0.4,.,.,.,i

compound,rRNA inh HTS,rRNA inh HTS RFP,ALR H2O2 inh,rRNA inh HTS OD600,HNF4A DNA FP,Beta2AR agonist,UCH37 DUB inh,Ecoli growth,FGF22 binding
COc1cccc(CNC(=O)CCCCCNC(=O)N2CCn3c2nc2ccccc23)c1,1,-1.5,-3,-11,-3.3,-4,3.2,0.72,i
COc1cc(NC(=O)CSc2nnc3ccc(-c4cccnc4)nn23)cc(OC)c1,2,-1.2,-7,4,3.3,-4,-103,0.63,i
CCCCNC(=O)n1c(=O)oc2ccc(Cl)cc21,.,.,-7,.,-0.4,-2,3.6,0.72,.
CCNc1cc(N2CCCC2)ccc1[N+](=O)[O-],.,.,-3,.,0.0,0,4.6,.,.
O=C(Nc1cccc2ccccc12)/C(=C\c1cccc([N+](=O)[O-])c1)NC(=O)c1cccs1,8,-1.0,-4,-7,-0.1,3,3.9,0.7,i
Cc1cc(C(=O)N/N=C/c2cccc(Cl)c2Cl)no1,.,.,-1,.,-1.3,2,.,.,.
CC(C)(O)C#Cc1ccc(CNC[C@H]2O[C@@H](n3cnc(C(N)=O)n3)[C@H](O)[C@@H]2O)s1,16,1.9,.,7,-1.9,0,.,.,i
CCC1C(=O)C(C)(C)C(=O)OC1c1ccc([N+](=O)[O-])cc1 (stereo unspecified),11,-4.6,-2,-6,3.4,3,.,.,i
CCC(C)[C@H](NC(=O)NCCC1=CCCCC1)C(=O)OC (stereo partly specified),4,-1.6,-18,2,-1.0,-3,25*,0.64,i
O=C(NC1CSC/C1=N\O)c1ccccc1 (stereo unspecified),.,.,15,.,-2.0,-1,.,.,.
CCCCc1nc2cc(C(=O)N3CCCC3)ccc2o1,4,-1.7,-4,7,-0.6,9,2.9,0.68,i
COc1ccc(N(C(C)C(=O)NCc2ccco2)S(C)(=O)=O)cc1 (stereo unspecified),.,.,2,.,-2.3,-15,-1.5,0.73,.
Cc1ccn2cc(-c3cnoc3C)nc2c1,.,.,8,.,-1.8,-3,-9.0,0.73,.

Compound activity deposited in PubChem BioAssay by several laboratories.

Some of the compounds tested; count on the stated rates, not on these rows.
